Bioassay records (PubChem)
KCNQ2 block – KCNQ2 potassium channel inhibitors, primary screen, cell-based, CHO-K1, FluxOR thallium flux, B-score (AID 2156); O88943; actives 1.1% (n = 310,000); 20 min; hits give low values; only compounds with negative scores are shown here; some inactives read as strong as hits; B-score at 10 µM;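 active means fluorescence ratio B-score at most minus 3 library SDs, with starting brightness B-score within 2 library SDs, cut at about -5.5 in these data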
Target sequence (O88943 whole entry, looked up): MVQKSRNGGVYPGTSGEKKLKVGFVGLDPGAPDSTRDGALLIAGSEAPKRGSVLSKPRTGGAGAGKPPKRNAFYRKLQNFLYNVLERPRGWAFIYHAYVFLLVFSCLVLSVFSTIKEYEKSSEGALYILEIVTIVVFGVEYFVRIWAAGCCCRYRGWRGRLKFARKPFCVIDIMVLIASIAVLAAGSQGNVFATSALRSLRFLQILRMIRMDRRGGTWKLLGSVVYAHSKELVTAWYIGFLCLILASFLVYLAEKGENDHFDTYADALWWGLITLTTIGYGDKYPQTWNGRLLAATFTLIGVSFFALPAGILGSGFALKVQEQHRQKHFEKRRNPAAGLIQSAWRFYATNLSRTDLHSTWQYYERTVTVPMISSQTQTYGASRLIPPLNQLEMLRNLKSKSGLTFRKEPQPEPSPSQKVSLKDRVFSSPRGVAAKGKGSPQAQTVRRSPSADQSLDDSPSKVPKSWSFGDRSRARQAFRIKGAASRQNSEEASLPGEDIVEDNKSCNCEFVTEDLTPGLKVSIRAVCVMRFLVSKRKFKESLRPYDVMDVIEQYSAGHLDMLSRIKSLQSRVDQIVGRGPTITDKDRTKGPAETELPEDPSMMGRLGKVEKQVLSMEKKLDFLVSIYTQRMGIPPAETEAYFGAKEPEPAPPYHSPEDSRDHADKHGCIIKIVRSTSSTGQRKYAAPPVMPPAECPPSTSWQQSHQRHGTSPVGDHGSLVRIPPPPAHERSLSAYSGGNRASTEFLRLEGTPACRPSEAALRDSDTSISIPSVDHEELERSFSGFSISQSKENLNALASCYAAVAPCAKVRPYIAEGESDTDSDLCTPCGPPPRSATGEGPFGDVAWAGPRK
KCNQ2 block baseline – second read-out of KCNQ2 block, no call of its own (marks repeat the call); B-score; measured here: initial fluorescence intensity artifact check;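 brightness before thallium and not channel activity; 0 = typical well and far values either way flag optical interference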
An asterisk follows results filed as active; i = inactive. Not all compounds are listed. The share of hits here may be higher or lower than overall.

KCNQ2 block,KCNQ2 block baseline,SMILES
i,-1.13,COc1ccc(S(=O)(=O)N(CC(=O)O)c2ccccc2)cc1
i,-1.88,COC(=O)CN1C(=O)C(C)(C)Oc2ccc(C(=O)Nc3ccccc3F)cc21
i,1.95,O=C(CSc1nnc(-c2ccc3c(c2)OCO3)n1-c1ccccc1)c1ccc(Cl)cc1
i,-0.33,CS(=O)(=O)c1ccc(C(=O)OC2CCOC2=O)cc1[N+](=O)[O-] (stereo not drawn)
i,-0.59,CCCCn1c(N)c(N(CC(C)C)C(=O)CN2C(=O)c3ccccc3C2=O)c(=O)[nH]c1=O
-6.46*,-2.56*,COC(=O)c1ccccc1NC(=O)c1ccc(COc2cccc3ccccc23)o1
i,0.75,Cn1cccc1C(=O)c1ccc(Cl)cc1Cl
i,1.09,COc1cccc(/C=N/NC(=O)CNC(=O)c2ccco2)c1O
i,0.7,CCc1ccc(CN2CCC(n3nccc3NC(=O)c3ccccc3Cl)CC2)cc1
i,0.62,O=C(CSc1ccc(-c2ccc(F)cc2)nn1)N1CCCc2ccccc21
i,-0.51,O=S(=O)(Nc1cccc(Cl)c1)c1ccc(-n2cccn2)cc1
i,2.41,CCN1C(=O)/C(=C\c2cn(-c3ccccc3)nc2-c2cccnc2)SC1=S
i,1.22,CCOC(=O)C1CCN(S(=O)(=O)c2ccc(C(C)=O)cc2)CC1
i,-0.07,O=C(Nc1ccccc1C(=O)N1CCCC1)c1cccc(S(=O)(=O)N2CCCCC2)c1
i,-1.07,O=C1/C(=C/c2ccc([N+](=O)[O-])cc2)CCC1C1CCCC1 (stereo not drawn)
i,0.13,CCc1ccc(N(C(=O)Cn2nnc(-c3ccccc3)n2)C(C(=O)NC2CCCCC2)c2ccccn2)cc1 (stereo not drawn)
i,0.28,CCOC(=O)N1CCN(C(=O)CN(c2ccccc2)S(C)(=O)=O)CC1
i,-0.87,CC1Cc2ccccc2N1C(=O)CN1CCCCC1 (stereo not drawn)
i,-2.55,O=C(N/N=C/c1cn(-c2ccccc2)nc1-c1cccs1)c1ccccc1F
i,0.24,CCOc1ccc(C(C)=O)cc1COc1ccc(-c2nnco2)cc1
i,-1.07,Nc1c(NC=O)c(=O)n(Cc2ccccc2)c(=O)n1Cc1ccccc1
i,-1.13,Cc1cc(S(=O)(=O)N2CCN(C(=O)c3ccco3)CC2)ccc1F
i,1.3,COc1cc(NC(=O)c2ccccc2)c(OC)cc1NC(=O)Cc1ccc(F)cc1
i,0.18,O=C(Nc1ccc(Cl)c(Cl)c1)OCc1cccnc1
i,1.13,CC(=O)C1C(c2cn(-c3ccccc3)nc2-c2cccs2)NC(=O)NC1(O)C(F)(F)F (stereo not drawn)
i,0.08,COc1cccc(C2CN(c3ccc(F)cc3F)N=C2c2cccs2)c1OC (stereo not drawn)
i,-0.04,Cc1ccc(C(=O)NCC(=O)N2CCN(c3ncccn3)CC2)s1
i,0.2,Cc1[nH]c2ccccc2c1/C=N/Nc1nc2ccccc2[nH]1
i,-1.24,O=S(=O)(Cc1ccccc1)N1CCN(C2Cc3ccccc3C2)CC1
i,-0.28,O=C(O)CSCC(=O)Nc1ccc(-c2nc3ccccc3s2)cc1
i,1.13,Cc1nc(Cl)sc1C(=O)Nc1ccc(C(F)(F)F)cc1
i,-2.77,CC1CC1c1ccc(/C=C(\C#N)C(=O)Nc2ccc(Cl)cc2)o1 (stereo not drawn)
i,0.11,COc1ccc(/C=C/C(=O)Oc2ccc(C)cc2)cc1
-6.01*,-0.82*,CC12CCC(=O)N1C(C(=O)Nc1nc3ccc(Cl)cc3s1)CS2 (stereo not drawn)
i,1.54,Cc1ccc(C(=O)c2cc([N+](=O)[O-])ccc2N2CCOCC2)cc1
i,0.01,Cc1ccc(NC(=O)CSc2nc(N)cc(N)n2)cc1S(=O)(=O)N1CCOCC1
i,-2.12,CC(=O)Nc1cccc(C(=O)/C=C/c2ccc(C)cc2)c1
i,0.25,COC(=O)C1=CN(C2CC2)C=C(C(=O)OC)C1c1ccc(C(F)(F)F)cc1
i,0.45,CCN(CC)S(=O)(=O)c1ccc(NC(=O)C2CCCO2)cc1 (stereo not drawn)
i,0.45,CCCC/C=C/C(NC(=O)c1ccc(C(=O)OC)cc1)c1ccccc1 (stereo not drawn)
i,-0.37,O=[N+]([O-])c1ccc(S(=O)(=O)N(CCCN2CCOCC2)Cc2cccs2)cc1
i,4.18,CCOC(=O)c1cc2n(c1/N=C/N(C)C)-c1ccccc1C2=O
i,0.36,Cc1ccccc1N1CCN(CCCN2C(=O)C3CCCCN3C2=O)CC1 (stereo not drawn)
i,-1.07,CC(C)N(Cc1nccn1C)C(=O)c1ccc2oc(Cc3ccccc3)nc2c1
i,0.41,CC(C)Cc1cc(C(=O)NCCc2ccccc2)no1
i,-0.23,COC(=O)c1ccc(NC(=O)CCN2CCN(CCC(=O)Nc3ccc(C(=O)OC)cc3)CC2)cc1
i,0.26,O=C(CSc1nc(Cc2ccccc2)nc2ccccc12)Nc1nc2c(s1)CCCC2
i,-1.02,COc1cccc(OC)c1C(=O)Nc1nc(COc2ccccc2)cs1
i,-1.28,Cn1cc(S(=O)(=O)N2CCc3ccccc32)cc1C(=O)Nc1ccc(Cl)cc1
i,0.04,CCOC(=O)c1c(NC(=O)c2ccccc2)sc2c(O)c(CN(CC)CC)ccc12

Looked up above:
In KCNQ2 block baseline, O=C(Nc1ccccc1C(=O)N1CCCC1)c1cccc(S(=O)(=O)N2CCCCC2)c1 is listed with -0.07
In KCNQ2 block baseline, CCCC/C=C/C(NC(=O)c1ccc(C(=O)OC)cc1)c1ccccc1 (stereo not drawn) is listed with 0.45
In KCNQ2 block baseline, CC1Cc2ccccc2N1C(=O)CN1CCCCC1 (stereo not drawn) is listed with -0.87
In KCNQ2 block baseline, CC(=O)Nc1cccc(C(=O)/C=C/c2ccc(C)cc2)c1 is listed with -2.12
In KCNQ2 block baseline, Cc1cc(S(=O)(=O)N2CCN(C(=O)c3ccco3)CC2)ccc1F is listed with -1.13

Next part:
KCNQ2 block,KCNQ2 block baseline,SMILES
i,1.42,Cc1ccc(C(=O)N/C(=C\c2cccc([N+](=O)[O-])c2)C(=O)NC(Cc2ccccc2)C(=O)O)cc1 (stereo not drawn)
i,1.5,O=C(C1CCCN1S(=O)(=O)c1cccc2nsnc12)N1CCN(c2ccc(F)cc2)CC1 (stereo not drawn)
i,-1.78,COc1ccc(CC(=O)N2N=C(C)CC2(O)C(F)(F)F)cc1OC (stereo not drawn)
i,2.92,CCCn1nnc(NC(=O)COc2ccc(CC)cc2)n1
i,0.45,CCc1nc2ccccc2nc1N1CCN(S(=O)(=O)c2c(C)cc(Cl)cc2C)CC1
i,1.48,COc1ccc(C(=O)Nc2cccc(/C(C)=N/NC(=O)c3ccc([N+](=O)[O-])cc3)c2)cc1OC
i,-0.29,Clc1ccc(SCc2nc3ccccc3[nH]2)cc1
i,-0.11,O=S(=O)(NCc1cccs1)NCc1ccccc1F
i,-1.72,Cc1cc(OCC(O)CN2C(C)CCCC2C)ccc1C(C)C (stereo not drawn)
i,2.01,O=C(Cc1coc(-c2ccc(F)cc2)n1)NCc1ccccc1
i,0.15,O=C(NCCCN1CCCC1=O)Nc1cc(Cl)ccc1Cl
i,1.15,COc1ccc2c(=O)c(-c3ccc4c(c3)OCO4)coc2c1
i,1.4,Cc1ccccc1Cn1c(=O)sc2ccccc2c1=O
i,0.85,CC(=O)C1=C(C)NC(C)=C(C(C)=O)C1c1ccccc1
i,3.87,COc1cc(-c2nc(C(=O)NC3CCCCC3)cc3c2[nH]c2ccccc23)cc(OC)c1OC
i,0.22,Fc1cccc(Cl)c1CNn1cn[nH]c1=S
i,0.03,COc1ccc(-c2[nH]c3ccccc3c2SCCNC(=O)c2ccccc2)cc1
i,-0.2,O=C(CSc1nc2sccc2c(=O)[nH]1)N1CCN(c2ccccc2)CC1
i,1.13,CC(C(=O)OCC(=O)c1ccc(Br)cc1)N1C(=O)C2C3C=CC(C3)C2C1=O (stereo not drawn)
i,-0.65,Cc1ccc(-n2cc(CN3CCN(c4ccccn4)CC3)c(-c3ccc(F)cc3)n2)cc1
i,-3.06,C/C(=N\Nc1cc(C(F)(F)F)ccc1Cl)c1ccccc1O
i,0.49,CC1CC(C)CN(S(=O)(=O)c2ccc3c(c2)n(C)c(=O)c(=O)n3C)C1 (stereo not drawn)
i,-0.67,COc1ccc(CSc2nnc(Cc3sc(-c4ccccc4)nc3-c3ccccc3)o2)cc1
i,0.09,O=C(O)CN1C(=O)/C(=C/c2ccccc2Br)Oc2ccccc21
i,-0.05,O=c1c2cc3c(=O)n(-c4ccccc4O)c(=O)c3cc2c(=O)n1-c1ccccc1O

Molecules from the list above with a thiophene ring, fused or not:
KCNQ2 block,KCNQ2 block baseline,SMILES
i,-2.55,O=C(N/N=C/c1cn(-c2ccccc2)nc1-c1cccs1)c1ccccc1F
i,1.13,CC(=O)C1C(c2cn(-c3ccccc3)nc2-c2cccs2)NC(=O)NC1(O)C(F)(F)F (stereo not drawn)
i,0.08,COc1cccc(C2CN(c3ccc(F)cc3F)N=C2c2cccs2)c1OC (stereo not drawn)
i,-0.04,Cc1ccc(C(=O)NCC(=O)N2CCN(c3ncccn3)CC2)s1
i,-0.37,O=[N+]([O-])c1ccc(S(=O)(=O)N(CCCN2CCOCC2)Cc2cccs2)cc1
i,0.04,CCOC(=O)c1c(NC(=O)c2ccccc2)sc2c(O)c(CN(CC)CC)ccc12
i,-0.11,O=S(=O)(NCc1cccs1)NCc1ccccc1F
i,-0.2,O=C(CSc1nc2sccc2c(=O)[nH]1)N1CCN(c2ccccc2)CC1

(continued)
KCNQ2 block,KCNQ2 block baseline,SMILES
i,3.16,COc1ccccc1CNC(=O)CN1C(=O)c2cccc(N)c2C1=O
i,0.27,CCN(CC)c1ccc(C(=O)NC(=S)N2CCN(Cc3ccc4c(c3)OCO4)CC2)cc1
i,-0.15,CC(C)c1cc(-c2cc(C(=O)Nc3ccccc3)on2)nc(NC2CCCC2)n1
i,-0.83,COc1ccc(OC)c(NC(=O)COC(=O)CSc2ccc(Cl)cc2)c1
i,-2.37,C=CCn1c(SCC(=O)Nc2ccc3c(c2)OCCO3)nnc1-c1ccco1
i,-1.22,CCN(c1cccc(C)c1)S(=O)(=O)c1cnc[nH]1
i,-0.84,O=C(N/N=C/c1ccc2c(c1)OCO2)C(=O)Nc1cccc(Cl)c1
i,-0.61,COc1ccc(NC(=O)C2(c3cccs3)CCOCC2)cc1
i,-0.79,O=C1CN(C(=O)CSc2nnnn2-c2ccc(Cl)cc2)c2ccccc2N1
i,-0.54,CCOC(=O)c1c(NC(=O)CNC2CCCCC2)sc(C)c1C
i,-0.65,COC(C(=O)Nc1ccccc1C(=O)N1CCOCC1)c1ccccc1 (stereo not drawn)
i,1.55,CSc1nc2c(c(=O)[nH]1)C(c1ccc(Cl)cc1)CC(=O)N2 (stereo not drawn)
i,0.04,CCCC(O)(c1ccc(CC)cc1)C(CN1CCOCC1)c1ccccc1 (stereo not drawn)
i,3.47,CCOc1ccc(N(CC(=O)N/N=C/c2ccccn2)S(=O)(=O)c2ccc(Cl)cc2)cc1
i,0.03,O=C(CSC1=NS(=O)(=O)c2cc(Cl)ccc2N1)NCCc1ccccc1
i,-1.45,CC(C(=O)Nc1ccccc1)N(C)CCOc1ccc(Br)cc1 (stereo not drawn)
i,1.65,Cn1c(CN2CCOCC2)nnc1SCC(=O)Nc1ccc2c(c1)OCCO2
i,0.98,CCN(Cc1ccccc1)C(=O)c1ccc(SC)cc1OC
i,-3.01,Cc1ccc(C(=O)NCc2n[nH]c(=S)n2-c2ccccc2)cc1[N+](=O)[O-]
i,-0.47,COc1ccc(C(=O)/C=C/c2ccc(F)cc2)c(OC(=O)c2ccc([N+](=O)[O-])cc2)c1
i,-0.12,O=C(CN1CCN(C(=O)c2ccco2)CC1)Nc1ccc(Cl)c(S(=O)(=O)N2CCOCC2)c1
i,1.5,COc1ccc(C2c3[nH]c4ccccc4c3CCN2CCCn2cccn2)cc1C (stereo not drawn)
i,0.2,COc1cc(-c2nc3cnccn3c2Nc2ccc(C(C)C)cc2)ccc1O
i,0.86,O=C(O)CCN1C(=O)c2ccccc2Sc2ncccc21
i,0.3,O=C(CN1CCC(n2nnc3cc(C(F)(F)F)ccc32)CC1)N1CCc2ccccc21
i,1.18,CC(O)c1ccc(Oc2cnccn2)cc1 (stereo not drawn)
i,-0.43,C[C@H](NS(=O)(=O)OCC(Cl)(Cl)Cl)C1CC1c1ccccc1 (stereo partly drawn)
i,-1.06,Cc1ccc(OCC(=O)O/N=C(\N)c2ccncc2)c(C)c1
i,-2.4,OCCN(CCO)c1nc2ccccc2[nH]1
i,-0.54,CC1=CCC(C(=O)O)C(C(=O)Nc2nc3ccc(S(C)(=O)=O)cc3s2)C1 (stereo not drawn)
i,-1.33,CCc1nc2ccccc2c(C(=O)Nc2ccc(C)cc2)c1C
i,0.53,CN(C(=O)COc1ccc(Cl)cc1Cl)c1nnc(C23CC4CC(CC(C4)C2)C3)s1
i,2.12,O=C1C(Oc2ccc(Cl)cc2)C(c2ccc3c(c2)OCO3)N1CC1CCCO1 (stereo not drawn)
i,-0.04,COc1cccc(OC)c1C(=O)N1CCNCC1
i,-1.36,COc1ccccc1NC(=O)N(Cc1ccco1)Cc1cc2c(C)ccc(C)c2[nH]c1=O
i,-0.11,CC1CCN(C(=O)Nc2ccc3nsnc3c2)CC1
i,-0.17,Cc1ccc(C(=O)Nc2ccc(S(=O)(=O)N3CCN(C)CC3)cc2)cc1
i,-2.01,O=C(NCCN1CCC(Cc2ccccc2)CC1)C1CCCN(S(=O)(=O)c2cnc[nH]2)C1 (stereo not drawn)
i,1.56,O=C(Cc1cccs1)NNC(=S)NC(=O)c1ccccc1
i,0.81,CC(=O)c1ccc(N2CCN(CCC#N)CC2)c(F)c1
